# High-throughput results from PubChem.
# NR2E3 ag-1: activates human NR2E3 receptor | AID 602229 | CHO-S Gal4-NCOR/VP16-NR2E3 two-hybrid, luciferase | inhibition of corepressor binding, % at 3.98 µM | 360,000 compounds, 0.35% hits | Q9Y5X4;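 active = inhibition above the mean of all tested compounds plus 3 SD, cut at about 70% in these data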;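 also: 0% = DMSO with NR2E3 transfected cells and 100% = cells lacking NR2E3 construct; higher means lower luciferase signal from less NR2E3 corepressor binding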
# NR2E3 ag-2: NR2E3 (human) agonism; Q9Y5X4; AID 2300; GST-NR2E3/biotin-RetCOR TR-FRET, 1536-well; 320,000 compounds, 0.12% hits; inhibition of corepressor binding, % at 4.78 µM;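 active = percent inhibition above the cutoff of mean plus 3 SD of all tested compounds, set per screening campaign, cut at about 20% in these data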;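 also: 0% = DMSO wells and 100% = biotin wells as full block of FRET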
#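 Material – GST-tagged NR2E3 plus biotinylated RetCOR corepressor · Quantity – NR2E3 fusion 1.35 nM · Times – 5 h incubation at 4 °C · Medium – pH 7.5 Tris-based buffer · Technique – TR-FRET, Eu(K)-anti-GST donor, streptavidin-D2 acceptor, ex 340, em 617/671 nm · Benchmarks – high control biotin, low control 0.6% DMSO · Format – 1536-well plates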
# KKLEB tox: CF airway cell cytotoxicity counter-screen. KKLEB CF airway cells viability, ATPlite luminescence, overnight; stronger effect = lower value; cells stimulated with P. aeruginosa culture filtrate. activity change (cytotoxicity), % at 5 µM. 360,000 compounds, 0.36% hits;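 active = corrected activity change at or below -50% at 5 µM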
# PDI inh: PDI (human) enzyme inhibition; AID 588391; 350,000 compounds, 0.052% hits; inhibition, % at 10 µM; PDI insulin aggregation turbidity, A650, 90 min; P07237;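 active = mean inhibition across replicates of 30% or more, whatever share of single replicates reach that level; inconclusive = mean inhibition below 30% while every single replicate reaches 30%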;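 also: absorbance from insulin aggregation driven by PDI reduction with DTT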
# Target sequence (P07237 whole entry, looked up): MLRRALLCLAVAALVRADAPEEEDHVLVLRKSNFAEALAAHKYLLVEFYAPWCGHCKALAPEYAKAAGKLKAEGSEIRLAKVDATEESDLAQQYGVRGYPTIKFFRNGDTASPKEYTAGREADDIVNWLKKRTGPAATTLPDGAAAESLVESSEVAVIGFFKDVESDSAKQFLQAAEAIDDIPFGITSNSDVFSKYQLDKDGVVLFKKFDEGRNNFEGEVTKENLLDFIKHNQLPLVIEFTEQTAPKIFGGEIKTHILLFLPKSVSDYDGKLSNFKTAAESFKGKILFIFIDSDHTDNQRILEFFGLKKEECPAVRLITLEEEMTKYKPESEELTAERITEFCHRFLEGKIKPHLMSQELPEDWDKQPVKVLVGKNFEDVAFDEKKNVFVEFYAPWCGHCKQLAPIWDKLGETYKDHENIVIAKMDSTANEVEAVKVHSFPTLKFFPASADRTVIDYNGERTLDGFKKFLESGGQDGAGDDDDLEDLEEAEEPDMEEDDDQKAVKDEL
# Vif inh: blocks HIV Vif function | HEK293T cells, Vif self-association by quenched fluorescence, imaging, 24 h | inhibition, % at 7.49 µM | 340,000 compounds, 0.35% hits | AID 602346; in the data active = inhibition above about 50%, passing the limit was not always enough; inconclusive = no clear call, values can overlap the other calls; inactive = below about 31%; also: some results filed as inactive read as strong as hits
# CaV13 FRET inh: Primary screen for inhibitors of IQ motif and Ca2+-dependent inactivation inhibitor domain binding in CACNA1D, Förster resonance energy transfer in living cells, …; HEK cells, CFP/YFP FRET ICDI-IQ, plate reader, 10 min; percent FRET-ratio fall versus neutral wells; inhibition, % at 12.3 µM; 340,000 compounds, 0.098% hits; AID 743397;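 active = mean replicate inhibition of at least 30% and at least 1% of replicates passing that level; inconclusive = only one of the two criteria is met; inactive = neither criterion is met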;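 also: 0% = median of the neutral control wells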
# * marks the source's active call; other numbers are inactive results; ? = inconclusive; . = no result given; & = joins results of further samples.
# Short keys – A = NR2E3 ag-1; B = NR2E3 ag-2; C = KKLEB tox; D = PDI inh; E = Vif inh; F = CaV13 FRET inh
SMILES: CCC(C)(O)C(=O)OC1C(=O)OC2CC3C(C)=CC(=O)C(O)C3(C)C3C4(O)OCC23C1C(C)C4O (stereo not given)
  A = 99* | B = . | C = -18 | D = 11 | E = -7 | F = -7

SMILES: Ic1ccccc1CN[C@@H]1C2CCN(CC2)[C@@H]1C(c1ccccc1)c1ccccc1
  A = 22 | B = 3 | C = -8 | D = 5 | E = 19 | F = -5

SMILES: CCN(CC)c1ccc(/C=N/c2sc3c(c2C#N)C2CCN3CC2)c(O)c1
  A = 14 | B = 0 | C = 9 | D = -6 | E = 13 | F = .

SMILES: COc1cc2nc(N3CCN(C(=O)C4CCCO4)CC3)nc(N)c2cc1OC (stereo not given)
  A = 1&-2 | B = -1&0 | C = 22&8 | D = 5&-1 | E = 5&0 | F = -4&-5

SMILES: C[C@]12CCC(=O)C=C1CC[C@@H]1[C@@H]2CC[C@@]2(C)[C@H]1CC[C@]2(C)O
  A = -1 | B = . | C = 2 | D = -2 | E = -3 | F = .

SMILES: COc1ccc2c(c1)/C(=C/c1cnc[nH]1)C(=O)N2
  A = 81* | B = -11 | C = -21 | D = 12 | E = -1 | F = -4

SMILES: O=C1C(Cl)=CC(=Nc2ccc(O)cc2)C=C1Cl
  A = 1 | B = -1 | C = 7 | D = ? | E = -3 | F = -6

SMILES: C[C@@H]1O[C@@H](O[C@H]2C[C@@H](O)[C@]3(CO)[C@H]4[C@H](O)C[C@]5(C)[C@@H](C6COC(=O)C6)CC[C@]5(O)[C@@H]4CC[C@]3(O)C2)[C@H](O)[C@H](O)[C@H]1O (stereo not given in full)
  A = 21 | B = 5 | C = -21 | D = -5 | E = -10 | F = -5

SMILES: COc1ccc(-[n+]2c(-c3ccccc3)cc(-c3ccc(C)cc3)cc2-c2ccccc2)cc1
  A = -24 | B = 5 | C = -33 | D = -1 | E = -38 | F = -11

SMILES: COc1ccc(C(CN(C)C)C2(O)CCCCC2)cc1 (stereo not given)
  A = -16 | B = -1 | C = -12 | D = -2 | E = -6 | F = -3

SMILES: CCCCC(CC)COC(=O)c1ccccc1C(=O)OCC(CC)CCCC (stereo not given)
  A = -8 | B = 4 | C = 26 | D = -10 | E = 3 | F = -5

SMILES: c1ccc2cc(CC3=NCCN3)ccc2c1
  A = -25 | B = 0 | C = -4 | D = -9 | E = 0 | F = -6

SMILES: COc1cc2nc(N3CCN(C(=O)[C@@H]4CCCO4)CC3)nc(N)c2cc1OC
  A = -36 | B = 4 | C = -13 | D = -4 | E = -5 | F = -5

SMILES: CCOc1ccc(-c2c(C)n(-c3ccc(OCC)cc3)c3[n+]2CCCCC3)cc1
  A = 64 | B = 1 | C = -10 | D = 1 | E = -6 | F = -3

SMILES: CN1C2CCC1CC(OC(=O)c1cc(Cl)cc(Cl)c1)C2 (stereo not given)
  A = -12 | B = 1 | C = -5 | D = 5 | E = -2 | F = .

SMILES: Nc1ccncc1
  A = -30 | B = 2 | C = 19 | D = -2 | E = -11 | F = -5

# Not all compounds are listed; rates above refer to the full screens.
